# Screens: PubChem BioAssay, National Center for Advancing Translational Sciences (NCATS)
# D2 potentiator – potentiates the human D2 dopamine receptor allosterically | P14416 | DiscoveRx D2 beta-arrestin cells, luminescence, 90 min; 100% = 57 uM dopamine signal | potentiation, % (no concentration beside the values) | hit rate 0.23% among 360,000 | AID 624464; active = potentiation of 50% or more; inconclusive = 30% to 50%; inactive = 30% or less;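 further: compound concentration not given in the record; tested on top of an EC20 dose of dopamine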
#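 PathHunter D2 cells, attached overnight at 37 deg C, received compound in DMSO plus dopamine at EC20 (50 nM final) for 90 min at 37 deg C. Beta-arrestin recruitment was read as luminescence after 1 h with detection reagent at ambient temperature.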
# Six1-Eya2 blk – Six1/Eya2 interaction inhibition; activity change, % (no concentration beside the values); hit rate 0.56% among 360,000; AlphaScreen GST-Six1/His-Eya2 binding, biochemical; stronger effect = lower value; control for the full effect not named in the record; Q15475+O00167; in the data active = activity change below about -65%; inconclusive = about -30% to -65%; inactive = above about -30%; further: on the % scale 0 is the no-effect control and ±100 the full control effect; compound concentration not given in the record
# Target sequence (O00167 whole entry, looked up): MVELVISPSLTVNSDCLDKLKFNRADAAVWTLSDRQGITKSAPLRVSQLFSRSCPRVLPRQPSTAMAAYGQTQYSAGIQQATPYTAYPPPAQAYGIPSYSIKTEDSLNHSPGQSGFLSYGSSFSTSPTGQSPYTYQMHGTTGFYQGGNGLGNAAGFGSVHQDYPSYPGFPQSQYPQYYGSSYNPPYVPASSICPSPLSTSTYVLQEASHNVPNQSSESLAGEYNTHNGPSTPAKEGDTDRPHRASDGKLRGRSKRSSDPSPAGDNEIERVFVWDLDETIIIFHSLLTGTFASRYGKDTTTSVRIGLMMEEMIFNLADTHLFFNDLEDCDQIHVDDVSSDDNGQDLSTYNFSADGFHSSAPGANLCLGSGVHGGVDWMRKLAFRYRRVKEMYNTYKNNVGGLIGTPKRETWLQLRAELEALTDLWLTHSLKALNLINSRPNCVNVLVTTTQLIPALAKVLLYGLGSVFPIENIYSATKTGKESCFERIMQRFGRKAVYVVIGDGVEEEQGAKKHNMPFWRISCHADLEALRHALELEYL
# Target sequence (Q15475 whole entry, looked up): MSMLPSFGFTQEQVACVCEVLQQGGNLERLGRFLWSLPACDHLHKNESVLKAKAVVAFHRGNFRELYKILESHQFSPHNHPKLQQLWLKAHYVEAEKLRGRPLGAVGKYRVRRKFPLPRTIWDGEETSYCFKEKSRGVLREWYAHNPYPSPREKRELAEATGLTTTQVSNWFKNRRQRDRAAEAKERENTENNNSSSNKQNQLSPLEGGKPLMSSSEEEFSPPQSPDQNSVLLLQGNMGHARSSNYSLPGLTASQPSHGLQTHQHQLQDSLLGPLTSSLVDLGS
#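 GST-Six1 + His-Eya2 (5X stock: 250/500 nM); Tris pH 8.0, 300 mM NaCl, 0.05% BSA, 0.02% Tween 20; GSH donor/Ni acceptor beads; 1 h 37 °C dark; AlphaScreen readout.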
# CtBP-E1A blk – CtBP/E1A binding inhibition; activity change, % (no concentration beside the values); AlphaScreen GST-E1A/His-CtBP binding, 1536-well; stronger effect = lower value; control for the full effect not named in the record; hit rate 0.49% among 340,000; in the data active means activity change below about -65%; inconclusive means about -30% to -65%; inactive means above about -30%; further: on the % scale 0 is the no-effect control and ±100 the full control effect; compound concentration not given in the record
#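 Homogeneous bead-based format: GST-tagged E1A captured on glutathione donor beads, His-tagged CtBP on nickel acceptor beads; compounds precede bead addition by 2 h at 37 °C.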
# gsp antag – gsp mutant antagonism; hit rate 0.4% among 340,000; Potency, µM (highest dose often 76.9 µM), for the others: at the top dose activity change, negative = inhibition, actives largely listed as inhibitors; gsp-mutant cells, cAMP HTRF, 30 min; control for the full effect not named in the record; AID 624288; active = falling curve of any shape with a large fitted effect; inconclusive = falling curve, mostly with a smaller effect; inactive = flat or rising curve; cell line not stated here;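 further: intracellular cAMP measured with PDE inhibitor Ro 20-1724 present during compound exposure; potency means the concentration at half of the fitted maximal effect; on the % scale 0 is the no-effect control and ±100 the full control effect; nearly all actives have a fitted effect of over 65% in size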
#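 HTRF cAMP read-out (cAMP-d2 plus anti-cAMP antibody-K in lysis buffer, 30 min RT). Before lysis, cells are exposed to compounds with […] for 30 min at 37C in DPBS containing Ca/Mg, BSA and Tween 20.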
# gsp ag – agonists of gsp mutant (McCune-Albright syndrome); gsp mutant cells, cAMP HTRF, 30 min; control for the full effect not named in the record; Potency, µM (highest dose often 76.9 µM), without a hit: top-dose activation (cAMP increase), actives largely listed as activators; hit rate 0.13% among 340,000; active = well fitted activation curve with a large enough effect; inconclusive = small, poorly fitted or top-dose-only effect, or another doubt; inactive = no such curve, though single readings can be large or run the other way; cell line not stated here;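 further: phosphodiesterase inhibitor Ro 20-1724 added with compounds to block cAMP breakdown; potency means the concentration at half of the fitted maximal effect; nearly all actives have a fitted effect of over 60% in size; about a fifth of the inactives were tested at one dose only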
#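 Cells stably selected in G418 were plated at 2000/well, grown 16-24 hr, then given compounds in DMSO with the PDE inhibitor […] (300 uM solution added) for 30 min at 37C; cAMP was read by HTRF.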
# D2 agonist – activates the human D2 dopamine receptor; hit rate 0.084% among 360,000; AID 624465; DiscoveRx PathHunter D2 beta-arrestin, luminescence, 90 min; 100% = 57 uM dopamine signal; activation, % (test concentration not listed); P14416; in the data active = activation above about 40%; inconclusive = about 15% to 40%; inactive = below about 15%; further: compound concentration not given in the record; the text of the record calls up to 30% inactive
#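 DiscoveRx PathHunter D2 beta-arrestin cells (2,100/well) attached overnight, then compound-stimulated 90 min at 37 C in HBSS/10 mM HEPES/0.1% Tween-20 buffer; beta-galactosidase complementation read by luminescence after 1 h at ambient temperature. Dopamine 57 uM final (EC100) as control.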
# * = called active by the depositor; ? = inconclusive; / = no result given; [ ] = dose if it differs, or a comment.
D2 potentiator	Six1-Eya2 blk	CtBP-E1A blk	SMILES	gsp antag	gsp ag	D2 agonist
0.7	-8.4	-21.2	CCOc1cc(C(=O)OCC(=O)NCc2ccco2)cc(OCC)c1OCC	6.0%	9.1%	0.3
-5.8	4.0	-1.9	O=S(=O)(NCc1ccco1)c1ccc2ccccc2c1	0.2%	2.6%[15.4 µM]	-2.6
-23.5	1.2	4.9	CCOC(=O)Cc1nnc(Nc2ccc(C)cc2C)c2ccccc12	?	-5.5%	-2.7
22.9	-4.1	-2.2	COC(=O)c1ccc(NS(=O)(=O)c2cc3c4c(c2)C(C)C(=O)N4CCC3)cc1 (configuration not stated)	2.3%	-4.4%	-1.4
-1.2	1.6	-1.6	COc1ccc(CCNC(=O)CSc2ncnc3c2oc2ccccc23)cc1OC	6.5%	-9.2%	-1.6
1.8	-4.2	-17.2	CCNc1ccc(C(=O)N/N=C/c2c(C)nn(-c3ccccc3)c2N2CCCC2)cc1[N+](=O)[O-]	-7.6%	-17.4%	-0.3
-2.4	-8.7	-2.7	COCCCNC(=S)N/N=C/c1ccc(N(C)C)cc1Cl	-4.2%	-5.0%[15.4 µM]	2.1
0.3	0.0	46.3	CCOC(=O)C(NC(=O)NC1CCCCC1)(c1ccccc1)C(F)(F)F (configuration not stated)	9.3%	?	-2.1
0.3	13.3	-11.1	O=C(O)CCC(=O)N1N=C(c2ccc(Br)cc2)CC1c1cccc(Br)c1 (configuration not stated)	-32.4%	7.1%	-2.9
-3.6	?	?	Cc1cc(/C=N/Nc2ncnc(N)c2[N+](=O)[O-])c(C)n1-c1ccccc1	12.8%	12.7%[15.4 µM]	4.4
-13.0	-6.1	-15.6	COc1ccccc1NC(=S)NC1CC2CCC1C2 (configuration not stated)	11.3%	0.6%	-4.1
5.9	14.3	18.5	CSc1nc(Oc2ccccc2)c2sccc2n1	-19.8%	?	1.5
-14.3	3.6	-6.7	CCOc1ccc(NC(=O)c2sc3nc(N4CCOCC4)c4c(c3c2N)CCCC4)cc1	13.1%	?	7.6
-4.1	1.6	0.5	COc1cccc(CNC(=O)CN(C)S(=O)(=O)c2ccc3c(c2)CC(C)N3C(C)=O)c1 (configuration not stated)	3.0%	9.1%	0.4
-8.8	?	?	COc1cccc(C(=O)NCC(=O)NNc2ncnc(N)c2[N+](=O)[O-])c1	5.7%	3.1%[15.4 µM]	-1.6
3.3	-2.4	1.5	CN(C(=O)CCN1C(=O)c2ccccc2C1=O)C1CCCCC1	1.9%	7.2%	0.2
-7.5	-2.1	?	O=C(O)C1CCN(C(=O)OCc2ccccc2)CC1	-4.2%	-1.4%	-2.5
16.0	5.3	-1.8	N/C(=N\OC(=O)c1cc(-c2ccccc2)nc2ccccc12)c1cccnc1	11.6%	-14.5%	8.1
-12.8	-13.9	?	Cc1nc2c(C(=O)N3CCN(c4ccccn4)CC3)cnn2c(C)c1Cc1cccc(Cl)c1	-9.8%	29.8%	-1.8
-29.4	-4.1	-18.4	COc1cccc(C(=O)NCCCN2CCN(CCCNC(=O)c3cccc(OC)c3)CC2)c1	14.7%	-15.8%	-1.3
-10.5	0.0	18.0	Cc1ccc2nc(SC(C(=O)c3ccccc3)c3ccccc3)nc(C)c2c1 (configuration not stated)	22.5%	-1.5%	-6.2
-3.6	1.8	10.3	Clc1ccc(-c2nnc(-c3ccccc3)o2)cn1	-7.8%	-9.8%[15.4 µM]	3.5
1.1	-6.3	-1.4	COc1ccc(COc2ccccc2C(=O)Nc2ccccn2)cc1[N+](=O)[O-]	2.5%	4.5%[15.4 µM]	2.3
8.8	4.8	7.4	CCOc1cc(-c2c(C)c(C)nc(N)c2C#N)ccc1O	7.2%[15.4 µM]	21.4%	?
-9.8	-1.6	-0.9	Cn1c(CN2CCCC(C(=O)c3ccc4c(c3)OCO4)C2)nc2ccccc21 (configuration not stated)	-3.7%	?	0.0
-4.5	-3.9	?	O=c1cc(-c2ccccc2Cl)oc2c(NS(=O)(=O)c3ccccc3C(F)(F)F)ccc(O)c12	-11.8%	?	-4.6
-22.2	-11.5	6.9	CS(=O)(=O)c1ccc(Cl)c(NC(=O)c2cc(=O)[nH]c3ccc(S(=O)(=O)N4CCOCC4)cc23)c1	14.0%	26.0%	-1.8
-4.4	-2.9	-5.7	CC(C)(C)C(=O)Nc1sc2c(c1C#N)CCN(Cc1ccccc1)C2	-21.5%	-3.3%	-4.1
15.9	-3.8	14.1	COc1cc(/C=C(\C#N)C(=O)Nc2ccc3ccccc3c2)c([N+](=O)[O-])cc1OC	2.0%	-0.7%[15.4 µM]	3.6
-0.7	1.4	6.3	COCCN(Cc1ccccc1)C(=O)c1c(C)nn(-c2ccccc2)c1C	5.9%	-38.1%	3.1
6.1	-1.9	-1.9	Cc1cc(Cl)ccc1OC(C)C(=O)Nc1ccc(S(=O)(=O)N2CCOCC2)cc1 (configuration not stated)	-5.1%	18.3%	2.9
-8.9	3.5	0.3	NC(N)=Nc1nc(C2COc3ccccc3O2)cs1 (configuration not stated)	6.1%	17.9%[15.4 µM]	-4.8
-2.1	6.7	-8.8	Cc1ccc(NC(=O)Nc2nnc(Cc3ccc(F)cc3)s2)cc1	4.8%	-38.8%[inhibitor]	1.0
-1.8	-0.3	0.5	O=C(C1CCN(S(=O)(=O)c2ccccc2F)CC1)N1CCc2ccccc21	-6.3%	-29.4%	3.6
3.9	-25.9	1.9	O=C(N/N=C/c1ccccn1)c1cc(-c2ccc(Br)s2)[nH]n1	-16.7%	12.1%[15.4 µM]	5.4
0.1	0.0	-1.0	Cn1c(=O)c(C(=O)COc2ccc(C#N)cc2)c(N)n(Cc2ccccc2)c1=O	-0.6%	?	-7.9
-2.3	3.2	6.2	O=C(CCc1ccccc1)Nc1cc(C(=O)O)cc(C(=O)O)c1	6.0%	-2.4%[15.4 µM]	-3.8
-12.5	-12.3	4.7	CC1CCN(S(=O)(=O)c2cc(C(=O)N3CCN(c4ccccc4)CC3)ccc2Br)CC1	/	0.8%	-2.2
-1.7	11.3	-20.6	NNC(=O)c1snnc1-c1ccccc1	0.5%	-0.3%[15.4 µM]	-3.1
-7.3	4.3	1.0	COc1ccc(C(=O)NC2=NCCS2)cc1S(=O)(=O)N1CCOCC1	/	14.7%	-5.2
-5.9	2.6	5.1	COc1ccc(S(=O)(=O)Nc2ccc3c(c2)C(=O)N([C@H](C)CO)C[C@H](C)[C@@H](CN(C)C(=O)Nc2c(C)noc2C)O3)cc1	0.1%	5.4%	-2.2
-19.2	-1.2	18.1	Cc1ccc(S(=O)(=O)Nc2c(C)nn(C)c2C)cc1	-8.8%	-5.4%	-2.6
-18.0	3.9	2.4	Cc1ccc(OCC(=O)N2CC3(C)CC2CC(C)(C)C3)cc1 (configuration not stated)	0.1%	-3.3%	-1.4
-0.3	-4.0	4.9	NC(=O)NOCc1ccccc1F	3.7%	2.3%	0.4
-9.9	-7.9	/	COc1ccc(Cl)cc1NC(=O)NCC1CCN(Cc2ccccc2F)CC1	?	14.2%	3.1
-1.5	1.0	-0.6	CC(C)(C)CC(=O)Nc1cc(S(=O)(=O)N2CCOCC2)ccc1N1CCCC1	-0.3%	-11.4%[15.4 µM]	-2.6
-0.9	1.3	/	CCOc1ccc(Cl)cc1/C=N/NC(N)=O	5.8%	?	0.1
-1.9	-4.3	5.1	CCCCn1c(-c2cccc(Br)c2)nc2cc3[nH]c(=O)c(C(C)C)nc3cc21	-3.7%	10.5%	0.4
-9.8	-4.4	3.2	Cc1ccc2nc(Cl)c(/C=N/Nc3ccc(C(=O)O)cc3)cc2c1	-15.7%	8.2%	-1.3
5.7	1.2	2.1	CC1(C(=O)NS(=O)(=O)c2ccc(Cl)cc2)CCN1C(=O)Cc1ccccc1 (configuration not stated)	/	/	-2.5
-20.5	-3.0	/	FC(F)(F)c1nc(Sc2ncccc2C(F)(F)F)n[nH]1	6.7%	22.8%	-3.3
3.9	-2.3	-3.3	CNC(=O)c1sc(-c2ccccn2)nc1C	3.7%	32.0%[15.4 µM]	1.3
-39.8	-9.4	-11.4	Cn1nc(CC(=O)Nc2ncc(Br)s2)c2ccccc2c1=O	-4.1%	?	0.8
-3.3	7.3	3.9	O=S1(=O)CCC(NC2CCCC2)C1 (configuration not stated)	-12.1%	17.0%[15.4 µM]	-0.6
0.9	23.3	0.1	CCC(C)c1ccccc1NC(=O)C(C)Sc1n[nH]c(N)n1 (configuration not stated)	-4.6%	?	-0.8
2.7	-3.8	2.8	CCOc1ccc(CCNC(=O)CCn2ccc3cc(S(=O)(=O)N4CCCC4)ccc32)cc1	?	-55.2%[inhibitor]	10.3
-9.1	-6.8	2.3	O=C(O)CCc1nc2ccccc2n(CCc2ccccc2)c1=O	-16.8%	0.0%	0.1
-5.5	-2.3	-0.4	Cc1ccc2c(C)nc(Nc3nc(CSc4nc5ccccc5s4)cc(=O)[nH]3)nc2c1	-8.5%	-33.6%[15.4 µM]	-3.3
-0.2	12.0	25.5	CNC(=O)NC(=O)C(C)OC(=O)c1oc2ccccc2c1CSc1ccc(Cl)cc1 (configuration not stated)	-1.5%	-5.2%	2.7
-0.7	5.8	/	CCc1cccc(C)c1NC(=O)CN(C)C1=NS(=O)(=O)c2ccccc21	1.8%	22.7%	-3.6

# The listing continues:
D2 potentiator	Six1-Eya2 blk	CtBP-E1A blk	SMILES	gsp antag	gsp ag	D2 agonist
-15.6	-13.5	10.7	c1ccc(-c2oc3ncnc(NCCN4CCOCC4)c3c2-c2ccccc2)cc1	-18.5%	1.3%	0.3
-3.2	-1.4	-8.2	CC(Oc1ccc(Cl)cc1)/C(N)=N/O (configuration not stated)	15.2%	1.1%[15.4 µM]	-2.7
-6.8	-3.1	-7.2	COc1cccc(C(c2sc3nc(C)nn3c2O)N2CCc3ccccc3C2)c1 (configuration not stated)	0.7%	-40.0%	0.2
4.7	5.4	-7.6	CCOC(=O)c1c(C)[nH]c(C(=O)N(C)Cc2cccc(OC)c2OC)c1C	1.7%	14.8%	2.0
-8.9	-1.3	-4.8	CSc1ccccc1OCc1cc(C(=O)NCCn2nc(C)cc2C)no1	-0.4%	-66.9%[inhibitor]	-2.5
-4.7	3.0	-7.2	CC(=O)c1ccc(S(=O)(=O)N2CCN(C(=O)CSc3ccc(F)cc3)CC2)cc1	-12.0%	6.4%[15.4 µM]	1.2

# Limited to gsp antag, Six1-Eya2 blk and D2 agonist (4 entries from above):
compound,gsp antag,Six1-Eya2 blk,D2 agonist
CC(Oc1ccc(Cl)cc1)/C(N)=N/O (configuration not stated),15.2%,-1.4,-2.7
COc1cccc(C(c2sc3nc(C)nn3c2O)N2CCc3ccccc3C2)c1 (configuration not stated),0.7%,-3.1,0.2
CCOC(=O)c1c(C)[nH]c(C(=O)N(C)Cc2cccc(OC)c2OC)c1C,1.7%,5.4,2.0
CSc1ccccc1OCc1cc(C(=O)NCCn2nc(C)cc2C)no1,-0.4%,-1.3,-2.5
